PK Bst: pyruvate kinase (B. stearothermophilus) modulation; partly purified Bacillus stearothermophilus pyruvate kinase, luminescence ATP production; ribose 5-phosphate activator present at AC10; Potency, µM; 1.2% of 51,000 active; in the data active means potency below about 11 µM; inconclusive means mostly about 12 µM to 25 µM; inactive means weaker than that;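 the screen sought inhibitors and activators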;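 note: potency is the fitted concentration of half-maximal effect; scaled between full activation by ribose 5 phosphate and full inhibition by luteolin; about four in five hits inhibit and the cells do not say which; series up to 57 µM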
YjeE inh: inhibitors of E. coli YjeE (TsaE); P0AF67; purified YjeE, fluorescence polarisation of a bound ADP probe; Potency, µM; 0.05% of 71,000 active; active = well fitted falling curve; inconclusive = weaker or top-dose-only fall, or a rising curve; inactive = flat or poorly fitted curve;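 note: top concentration of the series not given in the record; excess ADP was the control for the full effect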
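Purified YjeE (10 uM) with BODIPY Texas Red-labeled ADP probe (2 uM); compounds pin-transferred, 15 min at room temperature. Binding inhibition read as decreased fluorescence polarization; ADP titration as control.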
Starred values were filed as active, the others as inactive; i = inactive; ? = inconclusive; · = not tested or not shown.

Results follow in this order: PK Bst, YjeE inh
> c1ccc2c(c1)CCNC2
→ ·, i
> O=S(=O)(O)c1cc(O)ccc1O
→ ·, i
> CC(C(=O)N1CCC2(CC1)OCCO2)C1Sc2ccccc2NC1=O (stereo unspecified)
→ >57, i
> CN(C)C=C1C(=O)N(C2CCCCC2)C(=O)N(C2CCCCC2)C1=O
→ >57, i
> Cc1cc(N2C(=O)C3CCCN3C2c2sccc2C)no1 (stereo unspecified)
→ >57, i
> c1ccc2[nH]c(CCNC3CCCCC3)nc2c1
→ >57, i
> CCc1cc2c(s1)NC(=O)CN=C2c1cccs1
→ >57, i
> COc1ccc2c(c1O)-c1cccc3c1[C@H](C2)N(C)CC3
→ ·, i
> CCOC(=O)C1C2NC(=O)N(Cc3ccccc3)C1(C)Oc1c(OC)cccc12 (stereo unspecified)
→ >57, i
> Cc1ccc(N(C)C(=O)Oc2cccc3cccnc23)cc1
→ ?, i
> O=C(Cc1ccccc1)N1CCN(C/C=C/c2ccccc2)CC1
→ >57, i
> COCC(C)OC(=O)c1c(N)n(Cc2ccco2)c2nc3ccccc3nc12 (stereo unspecified)
→ >25.6, ·
> Nc1cc(Cl)cc(C(=O)O)c1Cl
→ ·, i
> CC1CN=C(Nc2ccc(N(C)C)cc2)S1 (stereo unspecified)
→ >25.6, ·
> CN1C[C@@H](CS(=O)(=O)N(C)C)C[C@H]2c3cccc4c3c(cn4C)C[C@@H]21
→ ·, i
> COc1ccc(N2C(=O)CC(N3CC=C(c4ccccc4)CC3)C2=O)cc1 (stereo unspecified)
→ ·, i
> O=c1[nH]c(=O)n(-c2cccc(Cl)c2)c(O)c1C=NCCN1CCCCC1
→ >25.6, ·
> CC(C)COC(=O)c1ccccc1C(=O)OCC(C)C
→ ·, i
> CC(C)C12CN3CCN(CC(C3)C1O)C2 (stereo unspecified)
→ >57, i
> CCn1c(=O)cc(OCC(=O)N2CCN(Cc3ccc4c(c3)OCO4)CC2)c2ccccc21
→ >57, i
> O=C(CN1CC(c2ccccc2)CC1=O)Nc1ccc(F)cc1 (stereo unspecified)
→ ·, i
> Cc1cc(C)c(C(=O)CN2CCOCC2)c(C)c1
→ >57, i
> CCOc1ccc(Br)c(C2(O)CC(C)N(C)CC2C)c1 (stereo unspecified)
→ ·, i
> CCOC(=O)CC(SP(=S)(OC)OC)C(=O)OCC (stereo unspecified)
→ ·, i
> CSc1nnc([C@@H](N)Cc2ccccc2)o1
→ >57, i
> O=C(CCCOc1ccc(Cl)cc1Cl)N1CCC2(CC1)OCCO2
→ >57, i
> CCCN1CCc2cccc3c2[C@@H]1Cc1ccc(O)c(O)c1-3
→ ·, i
> c1cncc(C2CCCCN2Cc2ccc3c(c2)OCO3)c1 (stereo unspecified)
→ ·, i
> Cn1cnc(CCN)c1
→ ·, i
> CCC(=Nc1ccc(OC)cc1OC)c1c(O)n(C2CCCCC2)c(=O)[nH]c1=O
→ >57, i
> CN1C(=O)C(Cc2ccc3c(c2)OCO3)C(=O)N(C)C1=O
→ ·, i
> CC(C)c1c(CN(C)[C@@H](C)Cc2ccccc2)n(C)n(-c2ccccc2)c1=O
→ ·, i
> O=c1cccc2n1CC1CC2CN(C(c2cccc(F)c2)c2sc3ncnn3c2O)C1 (stereo unspecified)
→ ·, i
> Clc1ccc([C@@H]2C[C@H]3CC[C@@H]2N3)cn1
→ ·, i
> N#Cc1ccc(N2CCNCC2)c(F)c1
→ >57, i
> c1ccc(N2CCCC3(CCNCC3)C2)nc1
→ ·, i
> O=c1[nH]c(=O)n(Cc2ccco2)c(O)c1C=NC1CC1
→ >57, i
> CCN(CC)CCCN=C(C)c1c(O)n(-c2ccccc2)c(=O)[nH]c1=O
→ >57, i
> CCOC(=O)c1cn2nc(OP(=S)(OCC)OCC)cc2nc1C
→ >57, i
> CC(=O)c1cccc(NC2=NCC(C)S2)c1 (stereo unspecified)
→ ·, i

A section taken from the entries so far, as a working copy:
Results follow in this order: PK Bst, YjeE inh
> c1ccc2c(c1)CCNC2
→ ·, i
> O=S(=O)(O)c1cc(O)ccc1O
→ ·, i

Next part
Results follow in this order: PK Bst, YjeE inh
> CCCCCc1cc(O)cc(O)c1
→ ·, i
> Cc1ccc(Cn2nnnc2CN2CCC(n3nnc4cc(C(F)(F)F)ccc43)CC2)cc1
→ >57, i
> Fc1ccc2c(c1)nnn2C1CCN(Cc2nnnn2C2CCCCC2)CC1
→ >57, i
> O=S(=O)(c1ccccc1)N1CN2CCN(C2)C1
→ >57, i
> O=C(C1CCCN(c2nnc(-n3cccc3)s2)C1)N1CCC2(CC1)OCCO2 (stereo unspecified)
→ >57, i
> CCC(=NCC1CCCO1)c1c(O)n(-c2ccc(Cl)cc2)c(=O)[nH]c1=O (stereo unspecified)
→ ·, i
> CCCCC(=O)C1C(=O)NC(=O)NC1=O
→ >57, i
> C[C@@]12CC[C@H](O)C[C@@H]1CC[C@H]1[C@H]2CC[C@@]2(C)[C@@H](C3=CC(=O)OC3)CC[C@]12O
→ ·, i
> CCOc1cc(-c2nc3c(C)cccn3c2NCC2CCCO2)ccc1O (stereo unspecified)
→ >57, i
> O=C(Nc1ccncc1)c1c(O)c2ccccc2n(Cc2ccccc2)c1=O
→ >25.6, ·
> CN(C(=O)Cc1ccc(Cl)c(Cl)c1)[C@H](CN1CCCC1)c1ccccc1
→ ·, i
> c1ccc2sc(C3CCCNC3)nc2c1 (stereo unspecified)
→ >57, i
> Cc1ccc2c(c1)CC1(CN2C)C(=O)NC(=O)N(CCC2=CCCCC2)C1=O (stereo unspecified)
→ >57, i
> CN(CCc1ccc(Cl)c(Cl)c1)[C@H]1CCCC[C@H]1N1CCCC1
→ ·, i
> CCOc1ccccc1-n1c(O)c(C=NCCCN(CC)CC)c(=O)[nH]c1=O
→ ·, i
> CC(C)(OOC(C)(C)c1ccccc1)c1ccccc1
→ ·, i
> N=C(N)c1c(O)n(C2CCCCC2)c(=O)n(C2CCCCC2)c1=O
→ >57, i
> O=C1OCCN1P(=O)(c1ccccc1)c1ccccc1
→ ·, i
> O=P(O)(O)/C=C(\Cl)c1ccccc1
→ ·, i
> COc1ccc2c(c1O)-c1c(OC)c(OC)cc3c1[C@H](C2)N(C)CC3
→ ·, i
> CCN(CC)P(=O)(Oc1cccc(C)c1)N(CC)CC
→ ·, i
> COc1cc2c(cc1O)CCN[C@H]2C
→ ·, i
> O=C(O)C1=CCCN(CCOC(c2ccc(C(F)(F)F)cc2)c2ccc(C(F)(F)F)cc2)C1
→ ·, i
> O=C(Nc1ccccc1)NC1CC2CCC(C1)N2 (stereo unspecified)
→ >57, i
> CN(C(=O)c1ccco1)C1(c2ccccc2Cl)CCCCC1=O (stereo unspecified)
→ >57, i
> O=C(O)[C@@H]1C[C@H]2C[C@@H](CP(=O)(O)O)CC[C@H]2CN1
→ ·, i
> CC(C)[C@@]1(NC(=O)[C@H]2C[C@H]3c4cccc5[nH]cc(c45)C[C@@H]3N(C)C2)O[C@]2(O)[C@H]3CCCN3C(=O)[C@H](Cc3ccccc3)N2C1=O
→ ·, i
> O=c1[nH]c2ccccc2n1C1CCN(CCCC(c2ccc(F)cc2)c2ccc(F)cc2)CC1
→ >25.6, i
> CCCN(CCC)CCc1ccc(O)c(O)c1
→ ·, i
> Cc1cccc(N2C(=O)CC(=O)NC2=O)c1
→ >57, i
> CSc1ccc(CNC2CN3CCC2CC3)cc1 (stereo unspecified)
→ >57, i
> CC12CN3CC(C)(CN(C1)C3c1ccco1)C2=O (stereo unspecified)
→ ·, i
> CCC(=O)O[C@H]1CC[C@H]2[C@@H]3CCC4=CC(=O)CC[C@]4(C)[C@H]3CC[C@]12C
→ ·, i
> CCN1C[C@]2(C)CC[C@@H](O)[C@]34[C@@H]5CC6[C@@H](OC)C[C@@](O)([C@H]5[C@@H]6O)[C@@H](C[C@@H]23)[C@H]14
→ ·, i
> Cc1oc(-c2ccc(Cl)cc2)nc1CS(=O)CC(=O)N1CCC2(CC1)OCCO2 (stereo unspecified)
→ ·, i
> c1ccc2c(N3CCNCC3)cccc2c1
→ ·, i
> O=P1(NCCCl)OCCCN1CCCl (stereo unspecified)
→ ·, i
> COc1ccc(OC)c(N2C(=O)NC(=O)C3(Cc4cc(C)ccc4N(C)C3)C2=O)c1 (stereo unspecified)
→ >57, i
> CCN(CC)c1ccccc1
→ ·, i
> O=C1N[C@@]2(CN3CCC2CC3)C(=O)N1CN(Cc1ccccc1)c1ccccc1
→ ·, i
> CCN(CC)CCCN=C(C)c1c(O)n(-c2ccc(C)cc2)c(=O)[nH]c1=O
→ >57, i
> Cc1ccc2c(c1)C1CN(C)CCC1N2C(=O)COc1ccc(S(=O)(=O)N2CCOCC2)cc1 (stereo unspecified)
→ >57, i
> CC(C)Nc1ccc(Nc2ccccc2)cc1
→ ·, 100µM*
> OC[C@H]1CCCN2CCCC[C@@H]12
→ ·, i
> CC[C@@]1(O)C(=O)OCc2c1cc1n(c2=O)Cc2cc3ccccc3nc2-1
→ ·, i
> CCOC(=O)C1=C(N)Oc2c(c(=O)oc3ccccc23)C12C(=O)N(C)c1ccccc12 (stereo unspecified)
→ >57, i
> O=C(Cn1ncc2c3ccccc3n(Cc3ccccc3)c2c1=O)N1CCC2(CC1)OCCO2
→ >57, i
> C#CCN(C)[C@@H](C)Cc1ccccc1
→ ·, i
> CC(C)c1ccc(C(O)(C(=O)O)c2ccc(C(C)C)cc2)cc1
→ ·, i
> CC(C)c1ccc(C(c2c(O)c3ccccc3oc2=O)c2c(O)c3ccccc3oc2=O)cc1
→ ·, i
> CCCCCCn1c(O)c(C=NCCCn2ccnc2)c(=O)[nH]c1=O
→ >25.6, ·
> Cl/C=C\Cl
→ ·, i
> O=c1c2ccccc2nc(-c2ccco2)n1-c1cccnc1
→ ·, i
> Cc1ccc2nc3c(cc2c1)CC1(C(=O)N(C)C(=O)N(C)C1=O)C1COCCN31 (stereo unspecified)
→ ·, i
> CCCC(C)C1(CC)C(=O)NC(=Nc2ccc(F)cc2)NC1=O (stereo unspecified)
→ >57, i
> CC1CCC(C(C)C)C(OP(N)(=O)c2ccccc2)C1 (stereo unspecified)
→ >25.6, ·
> COc1ccc(CN2CCN(C(=O)Cc3ccccc3)CC2)c(OC)c1
→ ·, i
> COc1ccc(C2NCc3ccc4c(c3-n3cccc32)OCO4)cc1OC (stereo unspecified)
→ >57, i
> CCC(=NC1CC1)c1c(O)n(-c2ccc(OC)cc2)c(=O)[nH]c1=O
→ >57, i
> Cn1ccnc1P(=S)(c1nccn1C)N1CCOCC1
→ >57, i

Going on with the list.
Results follow in this order: PK Bst, YjeE inh
> O=S1(=O)N(CCN2CC=C(c3c[nH]c4cc(F)ccc34)CC2)c2cccc3c2N1CCC3
→ ·, i
> CC(CO)(CO)N=Cc1c(O)n(-c2cccc3ccccc23)c(=O)[nH]c1=O
→ ·, i
> O=c1[nH]c(=O)n(Cc2ccco2)c(O)c1C=NCCCn1ccnc1
→ >25.6, ·
> COc1cc2c(C(=O)N3CCN(C)CC3)c(C)n(C)c2cc1Br
→ >57, i
> Cc1o[nH]c(=O)c1C[C@H](N)C(=O)O
→ ·, i
> O=c1[nH]c(=O)n(C2CCCCC2)c(O)c1C=NCCCn1ccnc1
→ i, ·
> CCOC(=O)c1cccc([P+](=O)O)c1
→ >57, i
> Clc1ccc(C(Cl)(Cl)Cl)cc1Cl
→ ·, i
> O=[N+]([O-])c1cc(Cl)c(Cl)c(Cl)c1
→ ·, i
> COc1ccccc1/C=C1/C(=N/O)C2CCN1CC2
→ ·, i
> CCOP(=O)(NC(C)C)Oc1ccc(SC)c(C)c1 (stereo unspecified)
→ ·, i
> OC1(c2ccc(F)cc2)CCNC1 (stereo unspecified)
→ >25.6, ·
> CN1CC[C@]2(C)c3cc(O)ccc3N(C)[C@@H]12
→ ·, i
> COc1cccc(C2=NOC(C(=O)N3CCC4(CC3)OCCO4)C2)c1 (stereo unspecified)
→ >57, i
> Cc1nn(Cc2ccccc2)c(C)c1C(=O)OCC(=O)Nc1ccccc1SCC#N
→ >57, i
> CC(C)(O)[C@H]1[C@H]2OC(=O)[C@@H]1[C@]1(O)C[C@H]3O[C@]34C(=O)O[C@H]2[C@]14C (tested in a mixture with another compound)
→ ·, i
> CC(C)CN1CCC2(CC1)CCN(C(=O)Oc1ccccc1)CC2
→ ·, i
> CCCCCCn1c(O)c(C=NC2CCN(Cc3ccccc3)CC2)c(=O)[nH]c1=O
→ >25.6, ·
> O=[N+]([O-])c1ccccc1Cl
→ ·, i
> COc1ccc(C2NCc3ccc4c(c3-n3cccc32)OCO4)cc1O (stereo unspecified)
→ >57, i
> [O-][Cl+2]([O-])O
→ ·, i
> CC12CCCCC1=[N+]([O-])CN2O (stereo unspecified)
→ >57, i
> O=C(c1ccc2c(c1)ncn2C1CCCCC1)N1CCC2(CC1)OCCO2
→ >57, i
> COC(=O)Nc1nc2ccccc2[nH]1
→ ·, i
> CN(C)NC(=O)CCC(=O)O
→ ·, i
> CCCC[C@@H]1C[C@H]1C(NP(=O)(c1ccccc1)c1ccccc1)c1ccc(Cl)cc1 (stereo partly specified)
→ ·, i
> CNC(=O)N(C)c1nnc(C(C)(C)C)s1
→ >25.6, ·
> CCCCOCCCn1c(N)c(C(=O)OCCOC)c2nc3ccccc3nc21
→ >25.6, ·
> c1ccc(C2CO2)cc1 (stereo unspecified)
→ ·, i
> O=C(c1ccc2c(=O)n(Cc3ccc4c(c3)OCO4)c(=S)[nH]c2c1)N1CCC2(CC1)OCCO2
→ >57, i
> CC[C@]1(O)C(=O)OCc2c1cc1n(c2=O)Cc2cc3ccccc3nc2-1
→ ·, i

Screening results deposited in PubChem BioAssay by National Center for Advancing Translational Sciences (NCATS).

Not all compounds are listed, so the mix of outcomes need not match the whole.
